Source: PubChem BioAssay
FGF22 binding = FGF22 (human) thermal shift binding; calls only at 9.99 µM; Q9HCT0; recombinant FGF22 thermal shift, SYPRO orange fluorescence; percent of sucrose octasulfate shift, DMSO zero; actives 1.5% (n = 340,000); AID 651658;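 active means melting point raised past a set limit in the mean and every replicate; three in four hits are not shown here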
Target sequence (Q9HCT0 whole entry, looked up): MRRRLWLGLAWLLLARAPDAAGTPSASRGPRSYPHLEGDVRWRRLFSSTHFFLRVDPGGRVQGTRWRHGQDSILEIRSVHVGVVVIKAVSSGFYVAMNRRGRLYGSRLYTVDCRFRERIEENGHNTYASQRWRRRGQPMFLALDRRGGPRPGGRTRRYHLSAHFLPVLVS
Calls only; i = inactive. Not all compounds are listed (hit frequency here may not be typical).

SMILES | FGF22 binding
O=C(N[C@@H](Cc1cccnc1)C(=O)N1CCC[C@H]1C(=O)NCCc1ccccc1Cl)c1cccs1 | i
O=C(C[C@@H]1CC[C@H]2[C@@H](COC[C@H](O)CN2C(=O)c2ccccc2)O1)Nc1ccccc1 | i
COc1cccc(-c2ccc(C3[C@H]4CNC[C@@H]3N4Cc3cccnc3)cc2)c1 (some centres not stated) | i
C[C@H](CO)N1C[C@H](C)[C@H](CN(C)S(C)(=O)=O)OCCCC[C@H](C)Oc2ccc(NS(C)(=O)=O)cc2C1=O | i
COc1ccc(NC(=O)Nc2ccc3c(c2)CC(=O)N([C@H](C)CO)C[C@@H](C)[C@@H](CN(C)C(=O)Nc2c(C)noc2C)O3)cc1 | i
O=C(C1CCOCC1)N1C[C@@H]2N[C@H](C1)C2c1ccc(-c2ccncc2)cc1 (some centres not stated) | i
Cc1ccc(C2c3c(n[nH]c3C)C(=O)N2c2ccccc2)cc1 (configuration not stated) | i
C[C@@H]1CN([C@H](C)CO)C(=O)Cc2cc(NS(C)(=O)=O)ccc2O[C@H]1CN(C)S(=O)(=O)c1cn(C)cn1 | i
O=C(N[C@H](C(=O)N1CCC[C@H]1C(=O)NC1CCCC1)c1ccccc1)C1CCCC1 | i
CC(=O)N1C[C@@H](CO)[C@@H](N(C)C(=O)C(C)(C)C)C[C@H]1c1ccccc1Br | i
CCCNC(=O)N1C[C@@H]2N[C@H](C1)C2c1ccc(-c2cccc(F)c2)cc1 (some centres not stated) | i
O=S(=O)(Cc1ccccc1)N1CCCCN2[C@H](CO)[C@H](c3ccc(-c4ccccc4)cc3)[C@H]2C1 | i
C[C@H]1CCCCO[C@H](CN(C)C(=O)c2ccncc2)[C@@H](C)CN([C@@H](C)CO)C(=O)c2cc(NC(=O)CCC(F)(F)F)ccc2O1 | i
C[C@@H]1CN([C@H](C)CO)C(=O)c2cc(NC(=O)Cc3ccccc3)ccc2O[C@@H](C)CCCCO[C@H]1CN(C)S(=O)(=O)c1cn(C)cn1 | i
CCCNC(=O)C[C@H]1C[C@@H]2c3cc(NS(=O)(=O)c4ccc(OC)cc4)ccc3O[C@@H]2[C@H](CO)O1 | i
CN1c2ccc(C#Cc3cccnc3)cc2[C@@H]2[C@@H](CCN2C(=O)c2cccc(F)c2)[C@@H]1CO | i
CCCNC(=O)N[C@H]1CC[C@@H](CCn2cc(C3CCCC3)nn2)O[C@@H]1CO | i
COCCNC(=O)C[C@H]1CC[C@@H]2[C@H](COc3ccc(NC(C)=O)cc3C(=O)N2C)O1 | i
N#Cc1ccc(-c2ccc3c(c2)[C@@H]2[C@@H](CCN2S(=O)(=O)c2ccccc2F)[C@@H](CO)N3)cc1 | i
COc1ccc(C2CC(=O)C(c3ccc(C)cc3)=CN2Cc2ccccc2)cc1 (configuration not stated) | i
COc1ccc(S(=O)(=O)N(C)C[C@@H]2Oc3ccc(NS(=O)(=O)c4ccc(Cl)cc4)cc3CC(=O)N([C@@H](C)CO)C[C@H]2C)cc1 | i
O=C(C1CCC1)N1C[C@@H]2[C@H](c3ccccc31)[C@H](CO)N2C(=O)Cc1ccccn1 | i
CNC(=O)C[C@H]1CC[C@@H]2[C@@H](COc3ccc(NC(=O)Cc4cccs4)cc3C(=O)N2C)O1 | i
COc1ccc(C#Cc2ccc3c(c2)[C@H]2[C@H](CCN2S(=O)(=O)c2ccccc2F)[C@H](CO)N3C)cc1 | i
COc1ccc(CN(C)C[C@H]2OCCCC[C@H](C)Oc3ccc(NC(=O)Cc4ccccc4)cc3C(=O)N([C@H](C)CO)C[C@@H]2C)cc1 | i
COC(=O)[C@H]1[C@H](CO)[C@H]2Cn3c(ccc(C4=CCCCC4)c3=O)[C@H]2N1CC1CCCCC1 | i
C[C@@H]1CCCCO[C@H](CN(C)S(=O)(=O)c2cccs2)[C@H](C)CN([C@H](C)CO)C(=O)c2cc(NC(=O)c3ccccc3)ccc2O1 | i
Cc1cc(O)cc(=O)n1-c1cccc(Br)c1 | i
C[C@H](CO)N1C[C@H](C)[C@H](CN(C)S(=O)(=O)c2cn(C)cn2)OCCCC[C@H](C)Oc2ccc(NC(=O)Cc3ccccc3)cc2C1=O | i
CN1OC[C@@H]2CN(Cc3ccc4c(c3)OCO4)[C@H](c3ccc(-n4ccnc4)cc3)C[C@@H]21 | i
O=C(Nc1ccc2c(c1)[C@H]1C[C@H](CC(=O)N3CCOCC3)O[C@H](CO)[C@H]1O2)C1CCC1 | i
COc1ccc(S(=O)(=O)Nc2ccc3c(c2)C(=O)N([C@@H](C)CO)C[C@@H](C)[C@H](CN(C)Cc2ccccc2)OCCCC[C@@H](C)O3)cc1 | i
C[C@@H]1CN([C@H](C)CO)C(=O)c2cc(NC(=O)Nc3ccc(C(F)(F)F)cc3)ccc2O[C@@H](C)CCCCO[C@H]1CN(C)S(=O)(=O)c1cn(C)cn1 | i
COc1ccc(NC(=O)Nc2ccc3c(c2)C(=O)N([C@H](C)CO)C[C@H](C)[C@H](CN(C)S(=O)(=O)c2c(C)noc2C)OCCCC[C@@H](C)O3)cc1 | i
COc1ccc(CN(C)C[C@@H]2OCCCC[C@H](C)Oc3ccc(NS(=O)(=O)c4ccc(OC)cc4)cc3C(=O)N([C@H](C)CO)C[C@@H]2C)cc1 | i
O=C(c1ccccc1)N1CC[C@H]2[C@H](CO)Nc3ccc(C#Cc4cccc(F)c4)cc3[C@H]21 | i
COCC(=O)Nc1ccc2c(c1)C(=O)N(C)[C@H]1CC[C@@H](CC(=O)NCc3ccc(OC)cc3)O[C@H]1CO2 | i
COC(=O)C1=C(C)N(Cc2ccccc2C(F)(F)F)C(=NCc2ccc(C(F)(F)F)cc2)NC1c1ccc(C(F)(F)F)cc1 (configuration not stated) | i
C=CCN=C1NC(c2ccccc2)C(C(=O)OC)=C(C)N1Cc1ccccc1C(F)(F)F (configuration not stated) | i
C[C@H](CO)N1C[C@H](C)[C@H](CN(C)C(=O)Nc2cccc3ccccc23)Oc2ccc(NC(=O)CCN3CCOCC3)cc2C1=O | i
COc1ccc(NC(=O)N(C)C[C@@H]2OCCCC[C@@H](C)Oc3ccc(NC(=O)c4ccncc4)cc3C(=O)N([C@H](C)CO)C[C@@H]2C)cc1 | i
Nc1ccn([C@@H]2O[C@H](C(=O)N[C@H](Cc3ccccc3)C(=O)N3CCN(C(=O)N4CCCCC4)CC3)[C@@H](O)[C@H]2O)c(=O)n1 | i
C[C@@H]1CCCCO[C@@H](CN(C)C(=O)Nc2ccc(F)cc2)[C@@H](C)CN([C@H](C)CO)C(=O)c2cc(NS(=O)(=O)c3ccc(F)cc3)ccc2O1 | i
CN(C)C(=O)c1ccc(-c2ccc3c(c2)[C@@H]2[C@@H](CCN2S(=O)(=O)c2ccccc2)[C@@H](CO)N3)cc1 | i
C[C@H]1CN([C@@H](C)CO)C(=O)c2cccc(N(C)C)c2O[C@H]1CN(C)Cc1ccc(C(F)(F)F)cc1 | i
COc1ccc(CN(C)C[C@H]2OCCCC[C@H](C)Oc3ccc(NS(=O)(=O)c4c(C)noc4C)cc3C(=O)N([C@H](C)CO)C[C@H]2C)cc1 | i
COC(=O)C[C@H]1CC[C@@H]2[C@@H](COc3ccc(NC(=O)c4cc(F)cc(F)c4)cc3C(=O)N2C)O1 | i
COc1cccc(-c2ccc(C3[C@@H]4CN(S(=O)(=O)c5ccccc5F)C[C@H]3N4)cc2)c1 (some centres not stated) | i
C[C@H](CO)N1C[C@H](C)[C@@H](CN(C)C(=O)CCC(F)(F)F)OCCCC[C@H](C)Oc2ccc(NC(=O)CCCN(C)C)cc2C1=O | i
CCCNC(=O)C[C@H]1CC[C@@H]2[C@H](COc3ccc(NC(=O)COC)cc3C(=O)N2C)O1 | i
CN(c1cccnc1)c1ccc(NC(=O)CCc2c[nH]c3ccccc23)cc1Br | i
C[C@@H]1CN([C@@H](C)CO)S(=O)(=O)c2ccc(Br)cc2O[C@H]1CN(C)CC1CCOCC1 | i
COCc1cc(N2CCN(C(=O)OC(C)(C)C)C[C@H]2C)ccc1N1CCN(Cc2ccccc2)[C@H](C)C1 | i
C[C@@H]1CCCCO[C@H](CN(C)C(=O)Cc2ccccc2)[C@@H](C)CN([C@H](C)CO)C(=O)c2cc(NC(=O)CCC(F)(F)F)ccc2O1 | i
COc1ccc(NC(=O)Nc2ccc3c(c2)[C@@H]2C[C@H](CC(=O)N4CCOCC4)O[C@@H](CO)[C@@H]2O3)cc1 | i
C[C@@H]1CN([C@H](C)CO)C(=O)Cc2cc(NC(=O)CCN3CCOCC3)ccc2O[C@@H]1CN(C)Cc1ccc(C(=O)O)cc1 | i
C[C@@H]1CN([C@H](C)CO)C(=O)c2cc(NC(=O)NC3CCCCC3)ccc2O[C@@H](C)CCCCO[C@@H]1CN(C)CC1CCCCC1 | i
C[C@@H]1CCCCO[C@H](CN(C)C(=O)C2CCCCC2)[C@H](C)CN([C@@H](C)CO)C(=O)c2cc(NC(=O)CCCN(C)C)ccc2O1 | i
COc1ccc2c3c([nH]c2c1)[C@@H](CO)N(C(=O)NC(C)C)CC31CCN(C(=O)NC2CCCC2)CC1 | i
COCCNC(=O)C[C@@H]1C[C@H]2c3cc(NC(=O)Nc4ccccc4F)ccc3O[C@H]2[C@@H](CO)O1 | i
Later entries.
SMILES | FGF22 binding
C[C@@H]1CN([C@H](C)CO)C(=O)c2cc(NC(=O)Nc3ccc(F)cc3)ccc2O[C@@H](C)CCCCO[C@H]1CN(C)S(=O)(=O)c1ccc(F)cc1 | i
C[C@@H]1CN([C@@H](C)CO)C(=O)Cc2cc(NC(=O)CCC(F)(F)F)ccc2O[C@@H]1CN(C)S(=O)(=O)c1cn(C)cn1 | i
COc1cccc(NC(=O)N(C)C[C@H]2Oc3ncc(/C=C/c4ccccc4)cc3C(=O)N([C@H](C)CO)C[C@H]2C)c1 | i
O=C(C[C@@H]1CC[C@@H]2[C@H](COC[C@H](O)CN2C(=O)c2cnccn2)O1)NCc1ccc(F)cc1 | i
COc1ccc(CNC(=O)C[C@@H]2C[C@@H]3c4cc(NC(=O)CC5CC5)ccc4O[C@@H]3[C@@H](CO)O2)cc1 | i
CCCNC(=O)N(C)C[C@H]1Oc2ncc(Br)cc2C(=O)N([C@@H](C)CO)C[C@@H]1C | i
COC(=O)C1=C(C)N(Cc2ccc(Br)cc2)C(=S)NC1c1cccc(F)c1 (configuration not stated) | i
COC(=O)C[C@H]1C[C@H]2c3cc(NS(=O)(=O)c4ccc(OC)cc4)ccc3O[C@H]2[C@@H](CO)O1 | i
O=C(C[C@@H]1CC[C@H]2NC[C@@H](O)COC[C@@H]2O1)NCc1ccc2c(c1)OCO2 | i
COc1ccc(S(=O)(=O)N(C)C[C@H]2Oc3ccc(NS(=O)(=O)c4ccc(C)cc4)cc3CC(=O)N([C@@H](C)CO)C[C@@H]2C)cc1 | i
COc1ccc(N2C(=O)c3n[nH]c(C)c3C2c2ccccc2)cc1 (configuration not stated) | i
CCCC(=O)N1C[C@H]2[C@@H](c3ccccc31)[C@H](CO)N2C(=O)CC1CC1 | i
CC(=O)C1=C(C)N(Cc2ccc(F)cc2)C(=S)NC1c1ccc(Br)cc1 (configuration not stated) | i
CCOC(=O)CNC(=O)N(C)[C@H]1C[C@H]2c3[nH]c4c(-c5ccccc5)cccc4c3CCN2C(=O)[C@H]1[C@H](C)O | i
CC(C)C(=O)Nc1ccc2c(c1)C(=O)N(C)[C@@H]1CC[C@@H](CC(=O)NCCc3ccccc3)O[C@H]1CO2 | i
Cc1noc(C)c1NC(=O)Nc1ccc2c(c1)CC(=O)N([C@H](C)CO)C[C@H](C)[C@H](CN(C)S(C)(=O)=O)O2 | i
Cc1noc(C)c1NC(=O)N(C)C[C@@H]1OCCCC[C@@H](C)Oc2ccc(NC(=O)CCCCCC(=O)Nc3ccccc3N)cc2C(=O)N([C@H](C)CO)C[C@@H]1C | i
Cc1ccc(S(=O)(=O)Nc2ccc3c(c2)CC(=O)N([C@@H](C)CO)C[C@@H](C)[C@H](CN(C)S(=O)(=O)c2ccc(Cl)cc2)O3)cc1 | i
CN1c2ccc(C#Cc3cccnc3)cc2[C@@H]2[C@@H](CCN2C(=O)c2cccc(F)c2)[C@H]1CO | i
Cc1noc(C)c1S(=O)(=O)Nc1ccc2c(c1)C(=O)N([C@H](C)CO)C[C@@H](C)[C@@H](CN(C)C(=O)CCCN(C)C)OCCCC[C@H](C)O2 | i
CCCCCn1cc(CCC(=O)Nc2ccc(N(C)c3ccccn3)cc2)c2ccccc21 | i

Compounds listed so far that contain a CF3 group:
SMILES | FGF22 binding
C[C@H]1CCCCO[C@H](CN(C)C(=O)c2ccncc2)[C@@H](C)CN([C@@H](C)CO)C(=O)c2cc(NC(=O)CCC(F)(F)F)ccc2O1 | i
C[C@@H]1CN([C@H](C)CO)C(=O)c2cc(NC(=O)Nc3ccc(C(F)(F)F)cc3)ccc2O[C@@H](C)CCCCO[C@H]1CN(C)S(=O)(=O)c1cn(C)cn1 | i
COC(=O)C1=C(C)N(Cc2ccccc2C(F)(F)F)C(=NCc2ccc(C(F)(F)F)cc2)NC1c1ccc(C(F)(F)F)cc1 (configuration not stated) | i
C=CCN=C1NC(c2ccccc2)C(C(=O)OC)=C(C)N1Cc1ccccc1C(F)(F)F (configuration not stated) | i
C[C@H]1CN([C@@H](C)CO)C(=O)c2cccc(N(C)C)c2O[C@H]1CN(C)Cc1ccc(C(F)(F)F)cc1 | i
C[C@H](CO)N1C[C@H](C)[C@@H](CN(C)C(=O)CCC(F)(F)F)OCCCC[C@H](C)Oc2ccc(NC(=O)CCCN(C)C)cc2C1=O | i
C[C@@H]1CCCCO[C@H](CN(C)C(=O)Cc2ccccc2)[C@@H](C)CN([C@H](C)CO)C(=O)c2cc(NC(=O)CCC(F)(F)F)ccc2O1 | i
C[C@@H]1CN([C@@H](C)CO)C(=O)Cc2cc(NC(=O)CCC(F)(F)F)ccc2O[C@@H]1CN(C)S(=O)(=O)c1cn(C)cn1 | i
